Screening results deposited in PubChem by National Center for Advancing Translational Sciences (NCATS).
Rango dissoc inh: inhibition of RanGTP-driven Rango-importin beta dissociation | O95149+P62826 | Biochemical FRET Rango-importin beta, RanGTP-induced dissociation | Potency, µM (series often up to 46.1 µM), inactives show top-dose activity change, negative = inhibition | 0.071% of 340,000 active; active means falling FRET ratio curve, often poorly fitted, with flat reads before Ran was added; inconclusive means other falling curves, or compound fluorescence or quenching; inactive means flat or rising ratio curve;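 further: potency means the concentration at half of the fitted maximal effect; % of control where 0% means no effect; nearly all actives have a fitted effect of over 45% in size; -100% = wells without RanGTP and RCC1; the record marks most hits as doubtful in a second field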
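Compounds preincubate 5 min with complex of recombinant Rango and importin beta in PBS with 1 mM DTT. Ran (0.6 uM) loaded with 2 mM GTP plus 0.2 uM RCC1 starts dissociation; FRET is recorded 45 min later.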
miR-21 FLuc: raises the signal of a miR-21 reporter; HeLa miR-21 FLuc reporter, luciferase, 48 h; Potency, µM (doses to about 38.3 µM), for the others: at the top dose reporter change, positive = more light; 340,000 tested, under 10 active; AID 2288; active = well fitted rising curve with a large enough effect; inconclusive = small, poorly fitted or top-dose-only effect; inactive = no such curve, though single readings can be large or run the other way;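 further: % of control where 0% means no effect; miR-21 action dims this reporter so a rising signal means less miR-21 action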
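HeLa cells stably expressing CMV-driven firefly luciferase with a downstream miR-21 binding sequence, endogenously expressing miR-21, were treated with titrations (up to about 40uM final) for 48 hours at 37 degree Celsius. Luciferase luminescence was read after lysis.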
Rango-impB inh: Rango-importin beta binding inhibition | Potency, µM (titrated, usually from 92.2 µM), inactives show top-dose inhibition of complex formation | Q14974 | Rango CFP/YFP FRET sensor + importin beta, 45 min | AID 540263 | 0.031% of 340,000 active; active = rising FRET ratio curve, often small or poorly fitted; inconclusive = mostly compound fluorescence or quenching in the first reads; inactive = flat curves in all reads;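 further: potency means the concentration at half of the fitted maximal effect; 0% = DMSO wells and 100% = buffer wells lacking importin beta; nearly all actives have a fitted effect of over 15% in size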
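FRET biosensor Rango (snurportin 1 IBB between N-terminal EYFP and C-terminal Cerulean), 50 nM in PBS/1 mM DTT/0.02% Tween-20/0.1% BSA, preincubated 5 min RT with compound; 0.125 microM importin beta added, 45 min RT, CFP/YFP FRET ratio read.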
GLA inh pH 4.5: alpha-galactosidase A (human) inhibition, pH 4.5; P06280; purified enzyme, 4-MU-alpha-Gal fluorescence, pH 4.5; activity change, negative = inhibition, % at 105 µM; 230,000 tested, under 10 active; AID 1467; inconclusive = small, poorly fitted or top-dose-only inhibition, or a rising curve; inactive = flat fitted curve, though single readings scatter; no compound was filed as active;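 further: 0% = full activity with enzyme and -100% = basal without enzyme; dose as in the result columns while the protocol names 77 µM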
Target sequence (P06280 whole entry, looked up): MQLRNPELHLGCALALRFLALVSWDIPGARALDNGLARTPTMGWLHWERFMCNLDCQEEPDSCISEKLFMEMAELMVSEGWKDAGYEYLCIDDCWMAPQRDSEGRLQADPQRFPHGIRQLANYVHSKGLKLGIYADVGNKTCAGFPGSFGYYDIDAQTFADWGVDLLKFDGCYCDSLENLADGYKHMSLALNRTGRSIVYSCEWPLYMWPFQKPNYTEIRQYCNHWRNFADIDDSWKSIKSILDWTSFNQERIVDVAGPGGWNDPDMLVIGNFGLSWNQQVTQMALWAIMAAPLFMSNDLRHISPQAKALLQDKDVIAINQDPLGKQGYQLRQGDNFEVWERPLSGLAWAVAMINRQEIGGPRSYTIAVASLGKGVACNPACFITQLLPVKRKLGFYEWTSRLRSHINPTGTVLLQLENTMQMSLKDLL
* marks the source's active call; other numbers are inactive results; ? = inconclusive; nt = no result given; & = joins results of further samples. These rows are one share of the data; count on the stated rates, not on these rows.

Rango dissoc inh	GLA inh pH 4.5	miR-21 FLuc	Rango-impB inh	structure
3.8%	nt	1.1%	1.5%	COc1ccc(N=Nc2c(-c3ccc(OC)cc3)[nH]oc2=O)cc1
-7.8%	4.8	-4.1%	3.1%	COc1ccc(C(=O)c2ccc(Br)cc2)c2ccccc12
-1.9%	nt	-20.3%	5.4%	O=C(CSc1nccn1Cc1ccccc1)Nc1ccccc1
20.6%	-6.7	-0.8%	-0.1%	Cc1cc2c(=O)n(CC(=O)N3CCN(c4ccc(F)cc4)CC3)cnc2s1
15.1%	1.3	-4.9%	-2.0%	COc1ccc(S(=O)(=O)Cc2ccc(C(=O)N3CCN(c4ccccn4)CC3)o2)cc1
15.8%	-7.7	2.2%	2.1%	CCn1c(NC(=O)c2cccc(Cn3cc(Cl)cn3)c2)nc2ccccc21
0.5%	-6.0	25.6%	-5.3%	Cn1c(C(=O)N2CCCC(C(=O)NCCCSC3CCCCC3)C2)cc2sccc21 (centres undefined)
14.8%	-2.2	-20.2%	0.6%	Cc1nn(C)c(C)c1S(=O)(=O)Nc1ccc2c(c1)OCO2
8.9%	7.9	-0.7%	4.1%	O=C(O)/C(=C\c1ccc(Br)cc1)c1ccc(S(=O)(=O)N2CCCCC2)s1
?	?	-3.1%	?	COC(=O)Cc1cc(=O)oc2c(C)c(O)ccc12
0.1%	-28.4	-27.6%	-2.7%	COc1ccc(-c2cc(C(=O)NC(Cc3c[nH]c4ccccc34)C(=O)O)c(C)o2)cc1OC (centres undefined)
-1.0%	-1.6	-8.0%	?	O=C(CN1CCN(C2CCCCC2)CC1)Nc1cccc2ccccc12
-20.3%	7.2	27.1%	-1.5%	CSc1nc2nc3c(cc2c(=O)n1-c1ccccc1C)CCCC3
-0.9%	0.6	0.1%	-1.6%	O=C(NC1CCCCC1)C1CCC(CNS(=O)(=O)c2cccc3nsnc23)CC1 (centres undefined)
-5.3%	-0.4	-1.8%	?	COC(=O)COn1c(SCC(=O)OC)nc2ccccc2c1=O
2.7%	0.6	17.6%	0.5%	COc1cc(CNCc2ccccn2)ccc1OCc1c(Cl)cccc1Cl
0.3%	nt	nt	-2.3%	CCNc1nc(NCC)n2c(SCC(=O)Nc3c(C)cccc3C)nnc2n1
0.9%	nt	nt	-0.5%	Cn1nc(C(=O)OCC(=O)Nc2ccc(F)cc2Cl)c2ccccc2c1=O
4.8%	0.7	-64.0%	-0.6%	O=C(OCc1csc(-c2ccccc2)n1)c1ccccc1O
0.0%	2.5	-2.4%	0.3%	Fc1ccccc1COc1ccc2ccccc2c1CNc1nn[nH]n1

Ordered by length of the SMILES (ascending): three of the compounds above
Rango dissoc inh	GLA inh pH 4.5	miR-21 FLuc	Rango-impB inh	structure
?	?	-3.1%	?	COC(=O)Cc1cc(=O)oc2c(C)c(O)ccc12
20.6%	-6.7	-0.8%	-0.1%	Cc1cc2c(=O)n(CC(=O)N3CCN(c4ccc(F)cc4)CC3)cnc2s1
8.9%	7.9	-0.7%	4.1%	O=C(O)/C(=C\c1ccc(Br)cc1)c1ccc(S(=O)(=O)N2CCCCC2)s1

The listing continues:
Rango dissoc inh	GLA inh pH 4.5	miR-21 FLuc	Rango-impB inh	structure
-3.2%	9.3	-19.1%	0.7%	COc1ccc2c(c1)nc(SCC(=O)C(C)(C)C)n2C
-2.2%	7.3	9.3%	-1.2%	Cc1cccc(NC(=O)CSc2nc3nc(C)cc(C)c3c(=O)[nH]2)c1
15.6%	1.4	3.5%	0.1%	O=C1/C(=C/c2cccc([N+](=O)[O-])c2)CSc2ccc(Cl)cc21
2.5%	0.1	-11.6%	0.6%	COc1ccc(CNC(=O)CSc2cccc3cccnc23)cc1
-12.2%	nt	-1.4%	-3.3%	COc1ccc(CCN(C)C(=O)c2ccc(S(=O)(=O)Nc3ccccc3C)cc2)cc1OC
-25.2%	-7.5	-20.0%	0.3%	Brc1csc(/C=N/Nc2nc3ccccc3s2)c1
-1.9%	2.8	-5.3%	2.9%	CCC1=NN2C(=N)/C(=C\c3cccn3-c3ccc(Cl)cc3)C(=O)N=C2S1
0.7%	nt	-0.9%	-0.8%	CCN(CC)P(=O)(c1ccccc1)c1c(C)nc2ccccn12 (centres undefined)
-7.1%	-10.9	-5.7%	-1.4%	CCC(C)(C)n1nnnc1C(c1ccccn1)N1CCOCC1 (centres undefined)
-21.1%	0.3	0.1%	0.7%	CC(C)CC(CO)N1CCN(C(=O)c2ccc(C(C)(C)C)cc2)CCC1=O (centres undefined)
-2.2%	0.5	-0.5%	-1.3%	O=C(CCC(=O)OCCCC(F)(F)C(F)(F)F)Nc1ccc(Cl)cc1Cl
-2.6%	nt	-57.8%	-2.1%	Cc1cccc(-c2nc3ccccc3c(=O)[nH]2)c1
-11.3%	nt	-45.3%	-0.6%	COc1ccccc1Nc1nc(-c2cccnc2)cs1
-11.4%	2.2	-7.8%	-1.6%	Cc1ccc(CNC(=O)CN2C(=O)COc3ccc(C)cc32)cc1
-5.1%	nt	nt	-0.1%	O=C(c1ccc(-c2ccccc2Cl)s1)N1CCOCC1
25.2%	nt	nt	?	COc1cc2nc(CN3CCN(S(=O)(=O)c4ccccc4)CC3)[nH]c(=O)c2cc1OC
9.1%	0.8	12.1%	0.7%	COc1ccccc1CNCC(O)(c1ccc(Cl)cc1)c1ccc(Cl)cc1
0.3%	-6.0	-2.6%	0.6%	CSc1ccccc1C(=O)C1CCCN(Cc2cnn(-c3ccccc3)c2)C1 (centres undefined)
-6.2%	nt	-2.2%	0.2%	COc1ccc(N(C(=O)c2ccco2)C(C(=O)NC2CCCC2)c2ccc(C)cc2)c(OC)c1 (centres undefined)
-8.7%	nt	-1.7%	3.2%	O=C(CSc1nncn1-c1cccnc1)Nc1ccccc1[N+](=O)[O-]
-1.0%	1.5	-10.6%	-1.7%	CCCCCC1=CCC/C1=N\NC(=O)c1ccc2c(c1)OCO2
35.1%	2.9	-1.3%	0.3%	Cc1c(NC(=O)c2cccs2)cccc1[N+](=O)[O-]
-6.7%	nt	-13.3%	-1.1%	COc1ccccc1NC(=O)CN1C(=O)COc2ccc(C)cc21
-0.5%	11.5	27.9%	1.5%	O=C(Nc1cccc(Oc2ccc(C(=O)O)c(C(=O)O)c2)c1)c1ccc(-c2ccccc2)cc1
16.3%	-26.9	5.4%	0.0%	COc1cc(/C=C/CO)cc(OC)c1OC/C=C(\C)CCC=C(C)C
-9.4%	9.1	-0.1%	0.5%	C/C=C\C=C\C(=O)N1CC2(CC(c3cccc(NC(=O)CC)c3)=NO2)C[C@H]1C(N)=O (some centres undefined)
7.3%	nt	-12.2%	4.4%	Cc1cc(=O)n2nc(N3CCC(C(=O)NCc4cccc(Br)c4)CC3)sc2n1
4.1%	nt	nt	-1.7%	CCCNC(=O)C1CC2Cn3c(nc4ccccc43)C2N1C (centres undefined)
0.7%	4.8	-20.5%	-0.2%	COc1ccc(/C=N/Nc2nc3ccccc3o2)cc1O
0.3%	nt	5.3%	0.1%	Cc1cc(C)c(S(=O)(=O)Nc2ccc(Cl)cn2)c(C)c1
3.9%	nt	-31.0%	5.2%	O=C(CN1CCCC1)Nc1ccc(Br)cc1[N+](=O)[O-]
-5.7%	-5.3	-2.1%	6.9%	O=C(NNC1=NS(=O)(=O)c2ccccc21)c1ccc(Cl)cc1
-4.3%	?	-33.5%	2.5%	O=C(Nc1ncc(Cc2cccc(C(F)(F)F)c2)s1)C1CCCO1 (centres undefined)
-3.4%	-17.1	9.6%	?	O=C(N(c1ccccc1)c1ccccc1)N(c1ccccc1)c1ccccc1
-10.7%	3.2	-7.2%	-4.0%	CC(C)(C)OC(=O)N1CCCC(C(=O)CC#N)C1 (centres undefined)
4.0%	nt	nt	-1.0%	COc1ccccc1N(Cc1ccccc1)S(=O)(=O)c1cccc(C(=O)NC2CC(C)(C)NC(C)(C)C2)c1
5.2%	7.9	3.3%	0.1%	O=C(CN(Cc1ccccc1)C(=O)c1csnn1)NCc1ccccc1
-2.5%	nt	nt	1.5%	Cc1ccc(S(=O)(=O)N[C@H](C(=O)NC2CCC(C)CC2)C(C)C)cc1 (some centres undefined)
6.9%	-2.2	-2.0%	-0.6%	Cc1nnc(SCC(=O)Nc2ccccc2)[nH]c1=O
10.9%	nt	nt	1.5%	O=C(Nc1cccc(C(=O)N2CCCC2)c1)C1CCCCC1
3.2%	3.3	-32.1%	-2.5%	O=C(Nc1ccc2c(c1)CCC2)Nc1ccc2c(c1)OCO2
-21.4%	nt	17.2%	0.9%	COc1ccc2[nH]c(=O)c(CN(CC3CCCO3)S(=O)(=O)c3ccccc3F)cc2c1 (centres undefined)
12.1%	-9.2	10.4%	-2.6%	COc1ccc(NC(=O)Cn2nnc(-c3ccccc3NS(=O)(=O)c3ccccc3)n2)cc1
-3.4%	nt	nt	-1.3%	Cc1occc1C(=O)N1CCN(S(=O)(=O)c2ccc(F)cc2)CC1
-8.3%	10.9	-3.9%	3.4%	OCCNCC12CC3CC(CC(C3)C1)C2
4.0%	-14.8	-14.9%	2.1%	CC(C)c1ccc(O)c(N)c1
-13.9%	nt	0.6%	-0.4%	Cc1nn(S(=O)(=O)c2ccc(Br)cc2)c(C)c1S(=O)(=O)N1CCOCC1
?	-3.0	-34.8%	?	CCOC(=O)CC(=O)CSc1nc(-c2cccnc2)ccc1C#N
7.3%	5.5	-2.1%	-2.4%	COc1ccc(C(=O)NC(Oc2ccccc2)C(Cl)(Cl)Cl)cc1 (centres undefined)
-6.5%	3.1	-51.6%	-2.3%	Cc1ccc(NC(=O)Nc2ccc(Cl)cc2)c(Br)c1
-7.7%	nt	nt	-1.2%	Cc1ccc(CNC(=O)c2cc(-c3ccccc3)nn2CC2CC(c3cccc([N+](=O)[O-])c3)=NO2)cc1 (centres undefined)
8.0%	nt	-4.3%	0.6%	O=C(Nc1ccc(N2CCOCC2)cc1)c1cccc2c(Br)cccc12
7.8%	nt	nt	1.8%	Cc1ccc(-n2nnnc2CNC(=O)C2CC(=O)N(c3ccc(F)cc3)C2)cc1C (centres undefined)
-13.3%	2.6	-21.9%	-1.3%	Clc1ccc(-c2nn3c(-c4ccccc4)nnc3s2)cc1
-9.7%	0.5	-27.0%	0.5%	O=C(O)c1ccc(NC(=O)c2cn(-c3ccccc3)nc2-c2ccc(F)cc2)cc1
?	-15.0&-6.1	0.3%&-1.6%	?	Cc1c(N=Cc2c(O)n(Cc3ccco3)c(=O)c3ccccc23)c(=O)n(-c2ccccc2)n1C
11.7%	nt	-0.3%	-1.0%	CN(C)CCN(Cc1ccccc1)S(=O)(=O)c1ccc(-c2ccc(=O)[nH]n2)s1
0.7%	7.9	-2.8%	1.7%	CC(=O)Nc1ccc(C(=O)CSc2nnc(Cn3nnc4ccccc43)n2C)cc1
1.5%	nt	-5.8%	-0.9%	COc1ccc(CN2C(=O)c3ccccc3C2OC)cc1 (centres undefined)
-8.6%	nt	-38.5%	0.8%	Cc1noc(C)c1CCC(=O)N1CCCC(CO)(Cc2ccccc2)C1 (centres undefined)

Continuation.
Rango dissoc inh	GLA inh pH 4.5	miR-21 FLuc	Rango-impB inh	structure
-3.5%	3.2	-5.1%	0.2%	CC[C@H](C)[C@@H](C(=O)N1CCNCC1)n1cc([C@@H](N)CC(C)C)nn1
-3.6%	nt	nt	-0.6%	CN(C(=O)c1cccc(NC(=O)Cc2ccc(NC(=O)C3CCN(C(=O)C4CCCCC4)CC3)cc2)c1)C1CCCC1
0.7%	-8.9	-1.8%	-3.4%	Cc1ccccc1NC(=S)N(CCN1CCCCCC1)Cc1cccs1
-2.3%	5.4	-2.5%	0.4%	O=C1CCCC2=C1C(c1ccccc1)n1c(s/c(=C/c3cccc(F)c3)c1=O)=N2 (centres undefined)
0.5%	-3.9	18.4%	1.6%	Cc1ccc(F)c([C@H]2[C@H]3C=CC[C@@H](C)[C@@H]3C(=O)N2Cc2ccccc2)c1
?	-11.1	4.5%	?	CCOC(=O)c1sc(NC(=O)CSc2n[nH]c(-c3ccccc3)n2)c(C#N)c1C
-1.8%	2.9	23.1%	0.2%	Cc1nc2ccccn2c1C(=O)NNS(=O)(=O)c1ccc(C(C)(C)C)cc1
-28.7%	nt	nt	-0.2%	CC(C(=O)Nc1ccc(S(=O)(=O)N2CCCC2)cc1)N1CCN(c2ccccc2O)CC1 (centres undefined)
